D2 agonist: activates the human D2 dopamine receptor; P14416; DiscoveRx PathHunter D2 beta-arrestin, luminescence, 90 min; 100% = 57 uM dopamine signal; activation, % (test concentration not listed); hit rate 0.084% among 360,000; AID 624465; in the data active = activation above about 40%; inconclusive = about 15% to 40%; inactive = below about 15%; note: compound concentration not given in the record; the text of the record calls up to 30% inactive
Target sequence (P14416 whole entry, looked up): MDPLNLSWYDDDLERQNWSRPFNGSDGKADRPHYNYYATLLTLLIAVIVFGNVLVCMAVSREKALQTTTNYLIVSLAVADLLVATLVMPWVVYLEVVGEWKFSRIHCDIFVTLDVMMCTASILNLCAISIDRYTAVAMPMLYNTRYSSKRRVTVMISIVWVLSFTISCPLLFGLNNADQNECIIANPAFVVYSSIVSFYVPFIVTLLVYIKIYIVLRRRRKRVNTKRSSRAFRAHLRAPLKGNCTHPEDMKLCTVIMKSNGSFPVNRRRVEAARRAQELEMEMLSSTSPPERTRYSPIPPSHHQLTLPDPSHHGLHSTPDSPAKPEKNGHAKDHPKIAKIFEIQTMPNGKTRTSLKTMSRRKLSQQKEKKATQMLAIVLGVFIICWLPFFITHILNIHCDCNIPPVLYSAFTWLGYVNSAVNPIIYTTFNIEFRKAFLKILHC
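Agonist mode: compounds alone added to overnight-plated D2 PathHunter cells for 90 min at 37 C, with 57 uM final dopamine (EC100) defining full response. Beta-arrestin recruitment detected by chemiluminescent reagent, read after 1 h at ambient temperature.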
gsp antagonist: antagonists of gsp mutant (McCune-Albright syndrome); Potency, µM (top dose mostly 76.9 µM), without a hit: at the highest dose activity change, negative = inhibition, actives largely listed as inhibitors; gsp-mutant cells, cAMP HTRF, 30 min; control for the full effect not named in the record; hit rate 0.4% among 340,000; active = falling curve of any shape with a large fitted effect; inconclusive = falling curve, mostly with a smaller effect; inactive = flat or rising curve; cell line not stated here;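 note: intracellular cAMP measured with PDE inhibitor Ro 20-1724 present during compound exposure; potency is the fitted concentration of half-maximal effect; % is set by controls: 0 for no effect and ±100 for the full control effect; nearly all actives have a fitted effect of over 65% in size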
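Measurement of cellular cAMP by homogeneous time-resolved fluorescence following a 30 min compound exposure at 37C. The PDE inhibitor […] was present throughout; the assay buffer was DPBS with 0.05% BSA and 0.005% Tween 20.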
ClpP mod: qHTS Assay for Activators of ClpP; hit rate 1.9% among 340,000; purified B. subtilis ClpP, FRET peptide cleavage, 20 min; Potency, µM (series often up to 57.5 µM), without a hit: top-dose activity change, negative = active; active = well fitted falling curve with a large enough effect; inconclusive = small, poorly fitted or top-dose-only effect; inactive = no such curve, though single readings can be large or run the other way; note: potency is the fitted concentration of half-maximal effect; the source files actives as falling curves though it sought activators and does not explain the sign; nearly all actives have a fitted effect of over 65% in size; many hits overshoot -100%
Target sequence (P80244 whole entry, looked up): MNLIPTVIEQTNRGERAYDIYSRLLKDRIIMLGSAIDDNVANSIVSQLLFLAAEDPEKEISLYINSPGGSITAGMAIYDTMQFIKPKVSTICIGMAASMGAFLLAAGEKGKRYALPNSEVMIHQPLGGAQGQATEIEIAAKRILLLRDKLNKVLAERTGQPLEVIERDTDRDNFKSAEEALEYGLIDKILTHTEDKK
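FRET quenching reversal measured ClpP activation: 10 microg/mL B. subtilis ClpP at pH 8 with the FRET-FV decapeptide, read at 430 nm after 320 nm excitation. The 20-min minus 0-min signal was scaled between DMSO/no-enzyme wells and ADEP (5.8 microM final).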
Sfp inh: inhibitors of Bacillus subtilis Sfp phosphopantetheinyl transferase. Q9F4F7. Potency, µM, for inactives: max response, negative = inhibition, actives largely listed as inhibitors. Biochemical Sfp PPTase activity, qHTS. hit rate 3.5% among 310,000; active = well fitted inhibition curve with a large enough effect; inconclusive = small, poorly fitted or top-dose-only effect, or another doubt; inactive = no such curve, though single readings can be large or run the other way;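 note: the enzyme is Sfp with the accession as filed and its product quenches rhodamine fluorescence; potency is the fitted concentration of half-maximal effect; 0% = enzyme reaction without inhibitor and -100% = no enzyme wells; top concentration of the series not given in the record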
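With Hepes-Na pH 7.6 buffer containing 10 mM MgCl2, Sfp (15 nM) modified BHQ-2-YbbR (12.5 uM) using rhodamine-CoA (5 uM). Two reads 30 minutes apart at 525/598 nm yielded each well's rate.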
Menin-MLL FL inh: displaces fluorescein MLL peptide from human menin | AID 1766 | 290,000 tested, under 10 active | FP activity change, % at 61.4 µM | Fluorescence polarization, fluorescein-MLL peptide displacement from menin; inconclusive = falling polarisation curve, or a change in total fluorescence; inactive = total fluorescence flat and polarisation flat or rising; no compound was filed as active; the % refers to the polarisation; negative = inhibition;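 note: % of control where 0% means no effect; inhibitors lower the polarisation; unlabelled MLL peptide was the positive control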
PINK1 modulator: modulators of PINK1 expression; PINK1 immunofluorescence, high-content cytometry, 24 h; Potency, µM (highest dose often 76.6 µM), for the others: at the highest dose activation (PINK1 increase), actives largely listed as activators; hit rate 0.2% among 410,000; AID 624263; active = well fitted activation curve with a large enough effect; inconclusive = small, poorly fitted or top-dose-only effect; inactive = flat fitted curve, though single readings scatter; cell line not stated here;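 note: potency is the fitted concentration of half-maximal effect; % of control where 0% means no effect; nearly all actives have a fitted effect of over 65% in size; a mitochondrial uncoupler was the plate control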
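A stable cell line was treated with compounds at 5 concentrations for 24 hours, with CCCP as control. PINK1 levels and mitochondrial localization were measured by immunofluorescence with mitochondrial, cell and nuclear markers after fixation, read by laser-scanning cytometry.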
gsp agonist: gsp mutant agonism; gsp mutant cells, cAMP HTRF, 30 min; control for the full effect not named in the record; Potency, µM (highest dose often 76.9 µM), for the others: top-dose activation (cAMP increase), usual class: activators; hit rate 0.13% among 340,000; AID 624287; active = well fitted activation curve with a large enough effect; inconclusive = small, poorly fitted or top-dose-only effect, or another doubt; inactive = no such curve, though single readings can be large or run the other way; cell line not stated here;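 note: phosphodiesterase inhibitor Ro 20-1724 added with compounds to block cAMP breakdown; potency is the fitted concentration of half-maximal effect; nearly all actives have a fitted effect of over 60% in size; about a fifth of the inactives were tested at one dose only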
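Cells stably selected in G418 were plated at 2000/well, grown 16-24 hr, then given compounds in DMSO with the PDE inhibitor […] (300 uM solution added) for 30 min at 37C; cAMP was read by HTRF.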
Active calls of the source: *; ? = inconclusive; . = no result given; & = joins results of further samples; [ ] = dose if it differs, or a comment.

Molecule	D2 agonist	gsp antagonist	ClpP mod	Sfp inh	Menin-MLL FL inh	PINK1 modulator	gsp agonist
COc1cccc(NC(=O)CSc2nc3c(oc4ccccc43)c(=O)[nH]2)c1	-2.8	-3%	-4.1%	8%	5.3	2.6%	-8%
CC1CCN(c2ccc(C(=O)N3CCOCC3)cc2[N+](=O)[O-])CC1	-3.4	16%	-0.4%	4%	1.1	2.1%	-3%
CCCSc1nc2ccccc2n1CC(=O)O	0.0	-11%	1.4%	8%	-1.8	2.2%	4%[15.4 µM]
O=C(NCCN1C(=O)C2C3C=CC(C3)C2C1=O)Nc1ccccc1 (configuration not stated)	-4.1	-3%	-3.6%	14%	3.2	-3.2%	-7%
O=C(NCC1CCCO1)c1ccc2c(c1)N(Cc1ccc(F)cc1)CCS2 (configuration not stated)	-11	-8%	4.2%	-23%	-3.3	-0.3%	9%
C/C(=N/NS(=O)(=O)c1ccc(C)cc1)c1ccc2c(c1)OCO2	-2.5	-2%	0.3%	4%	-2.1	-0.8%	13%
Cc1ccc(C(=O)NNC(=O)C(C)Sc2nc(N)cc(N)n2)cc1 (configuration not stated)	-0.4	1%	-0.1%	1%	1.5	-1.4%	-44%[inhibitor]
CC(=O)OC(C(=O)N1CCOCC1)c1c(F)cccc1F (configuration not stated)	1.3	11%	0.1%	-12%	-3.7	0.2%	-30%[inhibitor]
CC1CCCCN1CC(=O)NC(c1ccccc1)c1ccccc1 (configuration not stated)	-3.9	2%	-1.2%	79µM*	-1.3	-0.4%	-6%
O=C1c2ccccc2C(=O)N1CC1c2ccccc2CCN1C(=O)N1CCOCC1 (configuration not stated)	-4.4	-5%	0.6%	17%	5.2	0.2%	19%
CN1CCN(S(=O)(=O)c2cccc(C(=O)Nc3sccc3C(N)=O)c2)CC1	7.4	-4%	-2.8%	.	.	-0.2%	24%
C[C@@H]1CN([C@H](C)CO)C(=O)CCCn2nncc2CO[C@@H]1CN(C)C(=O)NC1CCCCC1	-13	.	0.3%	.	.	0.6%	-32%
COc1ccc(-c2nc3cc(C)c(Br)c(C)n3c2Cc2ccccc2)cc1OC	-2.6	.	-1.8%	.	.	9.2%	.
Nn1c(C2CCCCC2)nc2ccccc2c1=O	-0.7	8%	0.2%	11%	3.6	1.7%	3%
COc1ccccc1N1CCN(C(=O)c2sc3nc(-c4ccccc4)cn3c2C)CC1	2.7	6%	-0.4%	-29%	?	0.5%[38.3 µM]	15%
CCNS(=O)(=O)c1ccc2nc(NC(=O)/C=C/c3cc(OC)c(OC)c(OC)c3)sc2c1	0.7	-4%	-20%	1%	-3.0	0.2%	-12%
CCCc1cc(=O)[nH]c(SCC(=O)N(CC)c2c(N)n(Cc3ccccc3)c(=O)[nH]c2=O)n1	-2.7	-1%	-3.5%	.	.	-0.3%	-34%[inhibitor]
O=C(CCc1ccccc1)Nc1nc2nc(-c3ccccc3)cc(=O)n2[nH]1	-0.2	10%	3.9%	13%	3.8	-0.5%	6%
COc1ccccc1C(C)NC(=O)c1ccc(NC(=O)CC2SC(N3CCCC3)=NC2=O)cc1 (configuration not stated)	1.1	-5%	-2.6%	.	.	0.4%	14%
O=C1CCC(C(=O)OCC(=O)Nc2ccc(OC(F)F)cc2)=NN1	-2.7	.	-0.7%	.	.	0.9%	-75%[inhibitor]

More compounds.
Molecule	D2 agonist	gsp antagonist	ClpP mod	Sfp inh	Menin-MLL FL inh	PINK1 modulator	gsp agonist
COCc1cc(C)nc2sc(C(=O)Nc3nccs3)c(N)c12	11	-3%	-2.4%	-4%	1.7	0.0%	?
COc1ccc(C2=NNC(c3cccnc3)=Nc3ccc(OC)cc32)cc1	-0.5	.	.	?	-1.0	2.3%	-7%[15.4 µM]
Cc1ccc(CNC(=S)Nc2cc(C(=O)O)ccc2C)cc1	-4.0	1%	.	-11%	-6.2	3.1%	?
CSc1nnc(C)c(=O)n1COC(=O)c1ccc(S(=O)(=O)N2CCCC2)cc1	-1.7	-32%	-0.4%	5%	-3.7	0.7%	2%
CC(C)CC(=O)NC(=S)NNC(=O)c1ccc([N+](=O)[O-])cc1	-3.1	1%	1.2%	-27%	1.0	-1.7%	4%
COc1cccc(C(=O)Oc2ccc(/C=N/Nc3ccc(C(=O)O)cc3)cc2OC)c1	3.4	?	.	?	-4.4	1.0%	22%
CCn1c(O)c(N=Nc2ccc(Cl)c(C(=O)O)c2)c2ccccc21	-5.5	-11%	.	5%	?	1.6%	0%[15.4 µM]
CC1(C)CC(=O)C(C(c2ccc3c(c2)OCO3)C2C(=O)CC(C)(C)CC2=O)C(=O)C1	-4.3	.	-3.8%	.	.	6.9%	.
Cc1cccc(CNc2ccnc(-c3ccccc3C(F)(F)F)n2)c1	.	.	.	3%	-1.8	2.1%	.
c1ccc(-c2ccc(CN3CCN(c4ncccn4)CC3)cc2)cc1	?	-16%	-5.9%	?	3.7	2.9%	-2%
COc1ccc(-c2csc(NC3CCCCC3)n2)c(OC)c1	-3.4	0%	.	-27%	0.0	5.2%	0%[15.4 µM]
CC1=NN(C(N)=S)C(=O)C1N=Nc1ccccc1C(=O)O (configuration not stated)	-1.1	-5%	-1.6%	10%	1.1	3.4%	17%
CCN(CC)CCCNC(=O)C(C)n1c2ccccc2c2nc(=O)cc(C)n21 (configuration not stated)	0.7	10%	3.4%	23%	-12	-0.9%	11%
CC[C@@H](C)[C@@H]1CN([C@@H](CN2CCC[C@H]2CN2C(N)=NC[C@@H]2Cc2ccccc2)C(C)C)C(=N)N1CCCC1CCCC1	-4.9	6%	1.0%	.	.	-0.3%	-7%
CC(C)CNC(=O)COC(=O)/C=C/c1ccco1	2.2	4%	.	-1%	6.4	1.5%	-58%[inhibitor]
CCOC(=O)NC(=O)C(/C=N/c1sccc1C(=O)OC)=C(\C)O	-4.1	-4%	.	-17%	?	-1.5%	24%
Cc1cc(C)c2nc(C(F)(F)F)nc(NCCCN3CCCC3=O)c2c1	-3.1	-8%	-10%	9%	0.8	-1.6%	29%
O=C(N/N=C/c1ccc(N2CCOCC2)o1)c1cccc(C(F)(F)F)c1	-1.7	16%	0.7%	3.5µM*	3.2	-0.1%	3%
COc1cccc(-c2nnc(SC(C(=O)c3c[nH]c4ccccc34)c3ccccc3)n2C)c1 (configuration not stated)	-0.2	?	.	3%	6.6	0.1%	-4%[15.4 µM]
CC(=O)c1ccc(N2CCN(C(=O)COc3ccccc3F)CC2)c(F)c1	1.0	-3%	-2.6%	-1%	-3.4	-1.0%	-30%[inhibitor]

The list goes on.
Molecule	D2 agonist	gsp antagonist	ClpP mod	Sfp inh	Menin-MLL FL inh	PINK1 modulator	gsp agonist
COc1ccccc1N1CCN(C(=O)C2CCN(C(=O)c3ccccc3C)CC2)CC1	-3.8	-5%	-0.8%	13%	-2.5	1.9%	?
CCCCn1cnc2cc(NCc3ccncc3)ccc21	1.0	5%	-15%	1%	0.1	-4.5%[38.3 µM]	-3%
COc1ccc(NC(=O)CN(C)C(=O)Cc2ccc(S(=O)(=O)N3CCOCC3)s2)cc1	-0.2	2%	-3.9%	.	.	5.6%	-46%[inhibitor]
NNC(=O)c1ccc(N2CCCCCC2)c([N+](=O)[O-])c1	-3.2	5%	1.0%	13%	-4.5	1.9%	-7%[15.4 µM]
Cc1ccc(Nc2nc(NCc3ccco3)c3ccccc3n2)cc1	1.3	2%	.	10µM*	1.1	-1.7%	-14%[15.4 µM]
CCOC(=O)C1CCN(C(=O)CN2C(=O)COc3ccc(C(C)(C)C)cc32)CC1	-6.9	?	-1.4%	10%	.	-0.2%	-1%
CCOc1ccc(CC(=O)N/N=C(\C)c2cccnc2)cc1OCC	8.6	5%	-4.5%	4%	2.3	4.2%	30%
CC1CCC(=O)N(CCSc2ccccc2)CC1 (configuration not stated)	-0.4	-3%	1.1%&5.4%	24%	4.6	-1.1%	.
CC(=O)c1ccc(COC(=O)c2cc3ccccc3oc2=O)cc1	-1.7	-9%	?	4%	-2.4	4.5%	0%
COC(=O)c1c(C)[nH]c(C(=O)OCC(=O)N2c3ccccc3NC(=O)C2(C)C)c1C	-1.1	14%	-1.2%	-2%	5.2	4.8%	2%
COc1ccc(NC(=O)C2=C(C)NC(=O)NC2c2cccc(OC)c2OC)c(OC)c1 (configuration not stated)	2.1	-2%	0.3%	7%	-3.2	1.8%	13%
O=C(N=C1SC2CS(=O)(=O)CC2N1c1cccc(Cl)c1Cl)C1CCCO1 (configuration not stated)	-0.1	?	0.8%	6%	.	3.9%	26%
COc1cc(S(=O)(=O)N2CC(=O)Nc3ccccc32)ccc1NC(C)=O	0.5	-17%	0.8%	2%	9.7	1.0%	11%[15.4 µM]
CN(C)S(=O)(=O)c1cccc(C(=O)Nc2cc(Cl)cc(Cl)c2)c1	0.4	-25%	-4.3%	16%	1.0	1.3%	-42%[inhibitor]
Cc1ccc(-c2nnc3sc(C4COc5ccccc5O4)nn23)cc1 (configuration not stated)	-0.7	-18%	0.3%	1%	6.1	14%[38.3 µM]	8%
Fc1ccc2nc(Nc3nc4cc5c(cc4s3)OCCO5)sc2c1	-1.1	1%	6.3µM*	-11%	8.2	30%	-2%
Cc1cc(C(=O)COC(=O)c2ccc3c(c2)OCO3)c(C)n1CC1CCCO1 (configuration not stated)	-1.0	3%	.	-2%	-0.6	0.5%	-4%[15.4 µM]
O=C1N=C(N2CCOCC2)S/C1=C\c1ccc(-c2ccccc2Cl)o1	8.5	13%	0.6%	7%	-18	2.4%	-23%[15.4 µM]
O=[N+]([O-])c1cccc2nc3ccccc3c(NCCCn3ccnc3[N+](=O)[O-])c12	0.7	-16%	-9.1%	.	.	-6.9%	-6%
COc1cccc(N2[C@@H](CC(C)=O)c3ccc(/C=C/C(C)=O)cc3S2(=O)=O)c1	-6.8	-2%	-1.3%&-2.3%	.	.	-1.1%	-40%[inhibitor]
COc1ccc(CN2CCN(C(=O)c3cc(C4CC4)nn3-c3ccccc3)CC2)cc1F	-3.0	-15%	-4.9%	.	.	2.5%	2%
